Bfl-1 A1 inh – inhibitors of the anti-apoptotic protein A1, read as caspase activation. caspase activation, % (no concentration beside the values). actives 0.066% (n = 330,000). MEF A1-2A-BIM cells, Caspase-Glo 3/7 luminescence, 3 h; percent of clofoctol response, vehicle zero;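 active means over half of replicate activation scores above 10%, or exactly half above 10 with the replicate mean above 10; inconclusive means replicate mean below 10 yet half the replicates above 10; inactive means over half of replicates below 10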;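 further: wells of about 30 µL received 50 nL stock; many hits fall short of the cut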
B2AR ag – activates human beta-2 adrenergic receptor causing internalization. P07550. Am2.2-beta2AR cells, FAP receptor internalization, flow cytometry; reference of the scale not given here. response, % (no concentration beside the values). actives 0.43% (n = 340,000);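 active means response above a set limit, near 3 SD of response in nonfluorescent compounds, cut at about 42% in these data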;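 further: stock transfer was 100 nL into about 11 µL; a reference agonist was the positive control; negative values mostly stem from fluorescent compounds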
Vif TR-FRET – HIV-1 Vif–A3G interaction blockers – biochemical, TR-FRET, GST-Vif 1-94, biotin-A3G peptide, dose response retest, primary screen (AID 1117319) | TR-FRET GST-Vif / biotin-A3G peptide binding; higher % means a stronger effect; test concentration not given here; strong numbers were not always called active | inhibition, %, or IC50 in µM where a hit was titrated | actives 0.57% (n = 260,000);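 active means above the screen mean plus three standard deviations and confirmed in dose response; inconclusive means results disagree or hit not tested in dose response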;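 further: Vif residues 1-94 fused to GST binding biotinylated APOBEC3G peptide 110-148; 0% = full assay without inhibitor and 100% = GST in place of GST-Vif; retest series ran down from 100 µM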
HNF4A DNA FP – change in binding of human HNF4 alpha to DNA; P41235; HNF4a-FITC DNA binding, fluorescence polarization, 1 h; activity change, % at 10 µM; actives 0.3% (n = 360,000); in the data active means activity change above about 30%, passing the limit was not always enough;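 further: controls were the assay level and a saturating level of protein; the project sought stronger binding though the title names inhibitors; some compounds called inactive have numbers as strong as hits; positive values seem to mean higher polarization but the record does not say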
Target sequence (P41235 whole entry, looked up): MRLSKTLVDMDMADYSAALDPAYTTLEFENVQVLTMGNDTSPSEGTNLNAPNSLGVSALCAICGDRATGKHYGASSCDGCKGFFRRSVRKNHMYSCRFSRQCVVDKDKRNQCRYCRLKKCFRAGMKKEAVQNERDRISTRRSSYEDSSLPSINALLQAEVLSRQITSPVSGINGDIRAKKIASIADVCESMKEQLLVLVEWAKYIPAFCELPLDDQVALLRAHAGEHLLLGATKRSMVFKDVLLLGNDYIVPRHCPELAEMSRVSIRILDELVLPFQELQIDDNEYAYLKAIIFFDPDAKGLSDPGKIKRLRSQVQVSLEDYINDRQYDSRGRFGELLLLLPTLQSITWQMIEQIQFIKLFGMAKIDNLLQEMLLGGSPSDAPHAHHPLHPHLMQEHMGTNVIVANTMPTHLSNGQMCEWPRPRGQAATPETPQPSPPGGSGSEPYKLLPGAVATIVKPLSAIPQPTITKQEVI
LANA-H2A inh – blocks KSHV LANA binding to histone H2A/H2B; AID 2629; inhibition, % (test concentration not listed); cell-free LANA-H2A/H2B peptide, fluorescence polarization; actives 0.6% (n = 320,000); in the data active means inhibition mostly above about 10%, no sharp cut-off; inactive means mostly below about 6.7%;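 further: stock transfer was 7.5 nL into about 10 µL; 0% = median of vehicle wells and 100% = median of positive control wells; one replicate is shown; the record names a cut of 25% in any replicate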
Ecoli growth – blocks Escherichia coli growth; OD600 absorbance (concentration not given with the values); OD600, 23 h; stronger effect = lower value; actives 0.21% (n = 330,000); AID 1053175;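 active means OD600 absorbance below the run mean of sample wells minus 3.6 SD, in any replicate, cut at about 0.56 in these data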;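 further: stock transfer was 300 nL into about 60 µL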
UCH37 inh – inhibitors of human deubiquitinating enzyme UCH37; Q9Y5K5; purified proteasome/UCH37, Ub-AMC cleavage fluorescence; inhibition, % (concentration not given with the values); actives 0.33% (n = 330,000); AID 588478;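 active means mean of two replicates above 20%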;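 further: 0% = compound-free wells with enzyme and 100% = wells lacking proteasome; stock transfer was 100 nL into about 20 µL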
Target sequence (Q9Y5K5 whole entry, looked up): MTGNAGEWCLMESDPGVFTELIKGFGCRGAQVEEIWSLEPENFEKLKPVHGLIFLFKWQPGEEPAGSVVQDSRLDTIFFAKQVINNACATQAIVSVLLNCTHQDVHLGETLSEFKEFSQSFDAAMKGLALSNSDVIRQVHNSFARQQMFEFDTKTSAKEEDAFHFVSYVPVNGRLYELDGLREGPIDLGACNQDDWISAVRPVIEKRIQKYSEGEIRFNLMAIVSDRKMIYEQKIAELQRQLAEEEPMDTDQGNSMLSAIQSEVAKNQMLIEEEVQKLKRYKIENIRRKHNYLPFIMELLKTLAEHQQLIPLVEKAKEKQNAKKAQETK
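Assay system: Proteasome-bound UCH37. Buffer or medium: pH 7.4 Tris-HCl (50 mM) with ovalbumin, ATP-MgCl2, DTT. Incubation: 30 min preincubation with enzyme, 25 min cleavage at room temperature. Measured by: fluorescence, ex 355 nm, em 460 nm. Read-out basis: percent inhibition. Control set: wells without proteasome as full block, compound-free enzyme plus substrate as uninhibited.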
An asterisk follows results filed as active; u = inconclusive; x = no result given.

SMILES	Bfl-1 A1 inh	B2AR ag	Vif TR-FRET	HNF4A DNA FP	LANA-H2A inh	Ecoli growth	UCH37 inh
CCOc1ccc(-c2nc(C#N)c(N3CCOCC3)o2)cc1	2.3	-8	1%	-2.0	1.5	0.68	-140
COC(=O)Cc1cc(=O)[nH]c(/N=C(\N)Nc2ccc(C)cc2)n1	0.1	-4	68%	-0.7	-10	x	x
O=C(CCNC(=O)c1ccc(Cl)cc1)Nc1ccc(F)cc1F	1.2	5	x	-3.0	-2.4	0.67	7.5
CC(C)c1c(O)nc(SCc2ccccc2)[nH]c1=O	-0.1	4	-4%	-0.5	-3.0	0.78	2.0
Cc1cccc(NC(=S)NC(C)(C)CC(C)(C)C)c1	1.0	9	5%	-3.0	2.4	0.69	2.3
CCOC(=O)C1C(=O)Oc2ccc3ccccc3c2C1C1CCOC1=O (stereo unspecified)	0.9	2	u	-2.0	4.8	0.74	1.5
CCCCCc1ccc(-c2ccc(C(=O)O)cc2)nc1	-8.3	-1	6%	-0.3	-0.6	0.62	2.4
CC1CCCCC1NC(=O)c1cc(S(=O)(=O)N2CCCCC2)ccc1N1CCOCC1 (stereo unspecified)	-0.2	6	5%	0.1	-8.1	0.7	0.8
COC(=O)c1ccc(NC(=O)c2ccccc2N(C)S(=O)(=O)c2ccccc2)cc1	0.3	3	0%	-3.9	-5.3	0.64	1.3
CC12CCC(=O)N1C(C(=O)N1CCN(c3ccc(C(F)(F)F)cc3[N+](=O)[O-])CC1)CS2 (stereo unspecified)	-0.6	-21	-2%	-0.1	1.1	0.72	2.4
O=C(NCCCN1CCOCC1)c1onc(CSc2ccccn2)c1C(=O)NCCCN1CCOCC1	-0.6	1	x	5.7	0.8	0.68	1.4
COc1cccc(CN2CCC(n3nccc3NC(=O)C3CC3)CC2)c1	-0.2	0	3%	5.5	2.6	0.7	-0.9
Cc1noc(C)c1COc1ccccc1C(=O)N1CCN(S(=O)(=O)c2ccccc2F)CC1	1.2	1	-3%	-0.1	0.6	0.69	5.3
Cc1cccc(NC(=O)C2CCN(S(=O)(=O)c3c(C)noc3/C=C/c3ccco3)CC2)n1	-0.6	-3	u	11	0.3	0.73	6.0
Cc1cccc(C(=O)NNS(=O)(=O)c2ccccc2[N+](=O)[O-])c1	-0.1	-5	x	0.2	-0.3	0.74	0.6
Cc1cc(C)c(C#N)c(SCC(=O)C(C)(C)C)n1	-0.8	-16	1%	0.1	6.5	0.67	2.4
COc1ccc(C2c3c(oc4ccc(Cl)cc4c3=O)C(=O)N2CCN2CCOCC2)cc1 (stereo unspecified)	1.7	-13	15%	0.1	4.4	0.75	4.2
Cc1c(OCC(N)=O)ccc2c(-c3ccccc3)cc(=O)oc12	0.2	8	-10%	-0.4	-2.9	0.69	-133
O=C(CCS(=O)(=O)c1ccc(Br)cc1)Nc1ccccc1Cl	0.1	-6	25%	-0.1	-1.3	0.68	-0.5
Cn1c(NC(=O)c2ccc(Cl)cc2)c(-c2ccccn2)c(=O)c2ccccc21	0.1	3	27%	-1.1	-6.4	0.75	2.0
CCOC(=O)C1=C(C)N(c2ccc(C)cc2)C(=O)/C1=C\c1cccs1	-1.0	0	25%	-1.2	0.5	0.69	1.3
COc1ccccc1NS(=O)(=O)c1cc(C(=O)NC2CC(C)(C)NC(C)(C)C2)ccc1Cl	x	-5	x	0.0	x	0.72	6.3
CCOC(=O)c1csc(NC(=O)COc2ccc(Cl)cc2Cl)n1	0.1	-2	0%	-1.0	-4.6	0.61	2.5
O=C(CSc1cccc[n+]1[O-])NC1CCCCC1	8.3*	-1	x	-5.7	3.3	0.62	0.5
CCCCN(C(=O)c1sc2nc3n(c(=O)c2c1C)CCC3)c1c(N)n(CC(C)C)c(=O)[nH]c1=O	x	-2	-2%	-0.8	x	0.68	-3.3
O=C(CN1C(=O)c2ccccc2S1(=O)=O)NCc1ccccc1Cl	0.7	-4	0%	-1.0	0.0	0.71	4.6
O=C1CN(C(=O)CN2C(=O)NC3(CCCCC3)C2=O)c2ccccc2N1	-0.3	4	-5%	-4.2	-5.0	0.72	3.5
CCOC(=O)c1cnc2c(cnn2C)c1NCCC(O)C(F)(F)F (stereo unspecified)	-1.4	-6	u	1.9	-1.1	0.71	1.2
CN(C(=O)COC(=O)C1CCN(S(=O)(=O)c2c(Cl)cccc2Cl)CC1)C1CCS(=O)(=O)C1 (stereo unspecified)	-1.0	3	-1%	1.4	x	0.65	5.5
CNC(=O)C1C2C=CC3(O2)C1C(=O)N(C1CC1)C3C(=O)NCc1ccc(OC)cc1 (stereo unspecified)	0.5	1	3%	-0.8	-0.6	0.72	1.9
Cc1ccc(S(=O)(=O)N2CCN(C3CCC(c4ccccc4)CC3)CC2)cc1 (stereo unspecified)	-0.8	x	-2%	x	1.6	0.67	3.1
O=C1CCC(O)CCN1CCSc1ccccc1 (stereo unspecified)	-1.0	1	x	9.8	-0.5	0.65	1.3
COc1cc2c(cc1OC)CN(C(=O)c1ccc(-c3ccccc3)cc1)CC2	0.2	5	-1%	2.2	0.4	0.69	5.8
CCOC(=O)c1c(NC(=O)C2CCCCC2)sc2c1CCN(C(C)C)C2	0.0	-13	x	3.0	1.7	0.66	2.3
Cc1[nH][nH]c(=O)c1C(c1ccc2c(c1)OCO2)c1c(C)[nH][nH]c1=O	-0.2	4	8%	3.5	-3.0	0.67	2.1
Cc1ccc(NC(=O)N2N=C(c3ccc(F)cc3)CC2c2ccc(F)cc2)cc1 (stereo unspecified)	2.3	-4	-4%	3.5	4.1	0.72	2.9
Cc1ccc2nc(N3C(=O)C(O)=C(C(=O)c4ccc(C)o4)C3c3cccc(O)c3)sc2c1 (stereo unspecified)	-1.8	6	x	0.6	-3.4	0.71	2.5
CCOC(=O)COc1ccc(Br)cc1/C=C1\SC(N)=NC1=O	-1.0	28	-2%	-2.3	0.6	0.68	-0.2
CSc1nnc(C)c(/C=C/NOCc2ccc(Cl)cc2)n1	-0.6	1	9%	0.5	6.5	0.68	8.1
CCCCn1c(N)c(N(Cc2ccccc2OC)C(=O)CCC(C)C)c(=O)[nH]c1=O	-0.2	4	0%	0.9	-0.6	0.68	2.1
O=C(NCc1ccccc1F)C1CCCN(S(=O)(=O)N2CCOCC2)C1 (stereo unspecified)	1.4	-4	x	1.9	7.1	0.67	3.5
Cc1ccc(-c2nnc(SCC(=O)O)n2N)cc1	-0.1	3	-4%	5.0	1.7	0.67	2.7
C/C(CCc1ccccc1)=N/NC(=O)C(=O)NCc1ccccc1	0.7	9	23%	-0.6	-0.9	x	x
COc1cc(C)c(S(=O)(=O)NCc2ccc3c(c2)OCO3)cc1C	0.4	1	-4%	6.0	-7.7	0.72	1.1
COc1cccc(C2C(=O)c3ccccc3C2=O)c1	-0.2	2	25%	-2.9	-8.0	0.7	4.7
CNC(=O)CSc1n[nH]c(-c2cc(Cl)ccc2OC)n1	0.1	-9	x	-3.1	2.5	0.68	4.5
Cn1c(CSc2nnc(SCc3ccccc3)s2)nc2ccccc21	0.4	-22	69%	-3.3	0.5	0.69	0.9
O=C(CC1Oc2ccc(Cl)cc2NC1=O)NC1CCCCCC1 (stereo unspecified)	0.2	-2	-3%	0.6	2.7	0.79	2.8

Two compounds drawn at random from those above, as already listed:
SMILES	Bfl-1 A1 inh	B2AR ag	Vif TR-FRET	HNF4A DNA FP	LANA-H2A inh	Ecoli growth	UCH37 inh
C/C(CCc1ccccc1)=N/NC(=O)C(=O)NCc1ccccc1	0.7	9	23%	-0.6	-0.9	x	x
Cn1c(CSc2nnc(SCc3ccccc3)s2)nc2ccccc21	0.4	-22	69%	-3.3	0.5	0.69	0.9

Remaining list, next part
SMILES	Bfl-1 A1 inh	B2AR ag	Vif TR-FRET	HNF4A DNA FP	LANA-H2A inh	Ecoli growth	UCH37 inh
O=C(O)Cn1c(=O)c2c3c(sc2n(Cc2ccccc2)c1=O)CCCC3	1.5	1	2%	5.9	-0.6	0.66	1.8
COc1cc(C)c(S(=O)(=O)N2CCOCC2)c(C)c1C	-0.1	0	-3%	-0.9	-2.6	0.69	1.7
COc1cc(OC)c2c(=O)cc(-c3ccccc3)oc2c1	-0.2	-20	x	7.2	-4.7	0.72	-52
CNS(=O)(=O)c1ccc2nc(NC(=O)/C=C/c3ccco3)sc2c1	2.0	4	u	16	-5.4	x	x
O=c1n(-c2cccc(Cl)c2)c(=O)n2n1CCC2	-0.8	4	4%	3.0	1.5	0.69	-0.1
O=C(CSc1c[nH]c2ccccc12)N1CCOCC1	-0.1	3	18%	1.8	-1.8	0.67	2.2
O=C(/C=C/NNC(=O)c1ccccc1O)c1ccccc1	-4.4	2	x	1.7	-2.7	0.71	-1.5
O=c1c2ccccc2nc(-c2cccc(Cl)c2)n1O	-0.6	-4	4%	-2.7	1.6	0.65	-0.8
CN(Cc1cccc(-n2cccn2)c1)Cc1cn(C)nc1-c1ccccc1F	-0.4	-17	x	0.0	0.4	0.66	0.4
Cc1ccc(N2C(=O)C3C(c4ccccc4)(C2=O)C3(c2ccccc2)c2ccccc2)cc1 (stereo unspecified)	0.3	9	-9%	-3.8	3.7	0.76	4.1
COc1ccc(NS(=O)(=O)c2ccc(OC)c3ccccc23)cn1	0.7	-4	6%	0.8	-0.7	0.7	0.8
S=c1[nH]nc(-c2ccc3ccccc3n2)o1	-2.2	2	1%	0.6	5.6	0.7	5.0
O=C(CCS(=O)(=O)c1ccccc1)Nc1nc2ccc(F)cc2s1	-0.2	-3	-4%	5.8	1.3	0.66	0.1
Nc1c(Br)cc2c([nH]c(=O)c3ccccc32)c1Br	x	2	1%	-8.3	x	x	x
COc1ccc(C(CNC(=O)c2cccc(NS(=O)(=O)c3ccc(C)c(F)c3)c2)N2CCOCC2)cc1 (stereo unspecified)	0.9	3	-10%	0.1	0.9	0.65	4.2
Cc1ccc(C)c(N2CCN(CCCNC(=O)Cn3c(=O)c4cccn4c4cccnc43)CC2)c1	0.1	8	1%	2.9	-3.6	0.68	3.7
Cc1ccc(-n2nnnc2CN2CCCCC2)cc1	-0.3	-1	1%	-1.5	1.8	0.69	3.6

Screening results (PubChem BioAssay)
